# VDR inhibitor = vitamin D3 receptor (human) inhibition. P11473. VDR-SRC2-3 peptide fluorescence polarization, 2 h. Potency, µM, for the others: max response, negative = inhibition, usual class: inhibitors. 0.93% of 400,000 active. AID 504847; active = well fitted inhibition curve with a large enough effect; inconclusive = small, poorly fitted or top-dose-only effect, or another doubt; inactive = no such curve, though single readings can be large or run the other way; also: series mostly up to about 120 µM
# Target sequence (P11473 whole entry, looked up): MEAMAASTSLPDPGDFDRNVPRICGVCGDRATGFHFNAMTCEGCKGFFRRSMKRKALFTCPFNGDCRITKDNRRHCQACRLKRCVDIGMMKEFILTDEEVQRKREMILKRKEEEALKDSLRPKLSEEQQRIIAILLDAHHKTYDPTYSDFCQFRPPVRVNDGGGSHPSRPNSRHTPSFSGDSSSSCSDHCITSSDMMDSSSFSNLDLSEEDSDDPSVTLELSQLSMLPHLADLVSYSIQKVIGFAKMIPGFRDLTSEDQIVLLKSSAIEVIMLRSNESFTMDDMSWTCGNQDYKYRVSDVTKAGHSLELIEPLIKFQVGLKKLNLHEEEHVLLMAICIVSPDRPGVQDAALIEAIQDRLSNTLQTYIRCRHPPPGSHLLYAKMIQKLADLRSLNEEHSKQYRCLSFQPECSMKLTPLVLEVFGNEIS
#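 VDR–SRC2-3 interaction, FP format. Cmpds 23 nl via pintool, brief spin, 2 h ambient incubation.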
# An asterisk follows results filed as active; ? = inconclusive. % is scaled to controls: 0 for no effect and ±100 for the full control effect; potency is read from the fitted curve at half-maximal effect.
SMILES,VDR inhibitor
O=C(N/N=C\c1ccccc1)c1ccccc1-n1cccc1,-6%
CCC12CN3CC(CC)(CN(C1)C3c1ccc(OC(C)C)cc1)C2=O (stereo not given),-10%
Cc1ccc2oc(-c3ccc(NC(=O)c4ccncc4)cc3O)nc2c1,0%
O=C1CC(C(=O)O)c2ccccc2N1 (stereo not given),-6%
Cc1ccc(C2CC(c3ccc(C)cc3)n3nc(N)nc3N2)cc1 (stereo not given),-13%
COc1cccc(C(C(=O)NC2CCCC2)N(CC2CCCO2)C(=O)Cc2cccs2)c1 (stereo not given),-5%
Cc1nnsc1C(=O)N/N=C/c1cccc(C(F)(F)F)c1,3%
CC(=O)CCc1c(C)nc2ccc(C(=O)O)cc2c1Cl,-8%
COc1ccc(C(=O)NCC(O)CN2CCOCC2)cc1[N+](=O)[O-] (stereo not given),-10%
COc1ccc(C(=O)Nc2cccc(NC(=O)c3ccc(OC)c(OC)c3)n2)cc1OC,5%
COc1ccc(C(=O)NCC2(N3CCN(C)CC3)CCCCC2)cc1,8%
COc1ccccc1CNC(=O)c1nccnc1CO,-2%
Cc1ccc(NC(=O)c2ccco2)c(NC(=O)c2ccc(Cl)cc2)c1,-2%
NC(=O)C1CC(=O)N(c2ccc(OCC(=O)Nc3cccc(C(F)(F)F)c3)cc2)C1 (stereo not given),-2%
COc1ccc(CNC(=O)c2ccc(Cn3c(=O)c4cccn4c4cccnc43)cc2)cc1OC,-1%
COc1ccc(NC(=O)CCc2nc(-c3ccc(C)cc3)no2)c(OC)c1,1%
COC(=O)c1ccccc1NC(=O)CSc1nncn1-c1ccccn1,-16%
Cc1ccccc1C(=O)N1CCC(C(=O)Nc2ccccc2N2CCCC2)CC1,5%
CCCCCn1c(=O)[nH]c2cc(C(=O)N3CCN(c4ccc(OC)cc4)CC3)ccc2c1=O,7%
Cc1cc(C(=O)OCC(=O)N2CC(=O)Nc3ccccc32)no1,-5%
CCOC(=O)/C(=N\Nc1ccccc1Cl)N1CCN(C)CC1,-14%
COc1cccc(C2=NC(C)(C)NC(c3ccccc3O)C2)c1 (stereo not given),?
Cc1ccc(CN2C(=O)CCSc3ccc(Cl)cc32)cc1,-10%
O=C(COC(=O)C12CC3CC(CC(C3)C1)C2)Nc1nc2c(F)c(F)c(F)cc2s1,-8%
COc1ccc(COCC(O)CN2CCC(C(N)=O)CC2)cc1OC (stereo not given),12%
CCCCc1ccc(NC(=S)NCc2ccc(OC)cc2)cc1,-12%
O=C(O)[C@@H]1CN[C@@H](C(=O)O)C1,1%
CC1(C)CC(=O)C2=C(C1)N(c1ccc(F)cc1)C(=O)C2(NC(=O)c1ccccc1F)C(F)(F)F (stereo not given),9%
Nc1ccc(Cl)c(S(=O)(=O)Nc2ccc(Cl)cc2)c1,-3%
O=C(CSc1nnc(Nc2ccccc2)s1)Nc1ccc(S(=O)(=O)N2CCOCC2)cc1,-1%
O=C(O)c1cccc(Nc2nc3ccccc3nc2NS(=O)(=O)c2ccccc2)c1,?
CCC1CCCCN1C(=O)CSc1nnc(CNC(=O)c2c(F)cccc2Cl)o1 (stereo not given),1%
C/C(CC(=O)NCCCN1CCOCC1)=N\NC(=O)COc1cccc2ccccc12,-5%
CCOc1ccc(NC(=O)c2cn(-c3ccc(OCC)cc3)c(=O)c3cc(OC)c(OC)cc23)cc1,17%
CCOC(=O)C1(CC2CCCCO2)CCN(Cc2cc3ccccc3[nH]2)CC1 (stereo not given),-11%
COCCN=C1NN=C(c2ccc(C)c([N+](=O)[O-])c2)CS1,?
COc1ccc(C2(O)CC3CCC(C2)N3c2cc(C)nc(-c3ccccc3)n2)cc1 (stereo not given),13%
CCCCN(C)CCNC(=O)c1ccc(Cn2c(=O)[nH]c3cc(OC)c(OC)cc3c2=O)cc1,-25%
CC1CCN(C(=O)CCc2ccc(S(=O)(=O)NC(C)C)cc2)CC1,-5%
O=[N+]([O-])c1ccc(F)c(N=Cc2ccc(Br)s2)c1,-15%
Cc1cc(CNC(=O)c2cc(COc3ccc(F)c(F)c3)on2)nn1C,5%
Cc1ccc(CNc2nc3ccccc3n2C)cc1,0%
O=C(COC(=O)CCSc1ccccc1)Nc1cc(F)ccc1F,8%
CCN(CC)CC1(O)CCN(C(=O)c2ccc(Cl)c(Cl)c2)CC1,12%
COC(=O)c1ccc(N2C(=O)CC(N3CCC(O)(c4ccc(Br)cc4)CC3)C2=O)cc1 (stereo not given),-11%

# Seven entries already listed, arranged by the number in VDR inhibitor, highest first.
smiles | VDR inhibitor
Cc1ccccc1C(=O)N1CCC(C(=O)Nc2ccccc2N2CCCC2)CC1 | 5%
Cc1cc(C(=O)OCC(=O)N2CC(=O)Nc3ccccc32)no1 | -5%
O=C(N/N=C\c1ccccc1)c1ccccc1-n1cccc1 | -6%
CC(=O)CCc1c(C)nc2ccc(C(=O)O)cc2c1Cl | -8%
Cc1ccc(CN2C(=O)CCSc3ccc(Cl)cc32)cc1 | -10%
CCOC(=O)/C(=N\Nc1ccccc1Cl)N1CCN(C)CC1 | -14%
COC(=O)c1ccccc1NC(=O)CSc1nncn1-c1ccccn1 | -16%

# Taken from above:
# For VDR inhibitor, CCOc1ccc(NC(=O)c2cn(-c3ccc(OCC)cc3)c(=O)c3cc(OC)c(OC)cc23)cc1 reads 17%
# For VDR inhibitor, CCOC(=O)C1(CC2CCCCO2)CCN(Cc2cc3ccccc3[nH]2)CC1 (stereo not given) reads -11%
# For VDR inhibitor, O=C(COC(=O)CCSc1ccccc1)Nc1cc(F)ccc1F reads 8%
# For VDR inhibitor, CCCCN(C)CCNC(=O)c1ccc(Cn2c(=O)[nH]c3cc(OC)c(OC)cc3c2=O)cc1 reads -25%

# More results follow:
SMILES,VDR inhibitor
ON=C1c2ccccc2-c2cc(Br)ccc21,2%
CCOC(=O)c1sc2nc(CSc3ccccc3)nc(N3CCCN(C)CC3)c2c1C,-19%
O=C(CNC(=O)c1ccco1)N/N=C/c1ccccc1[N+](=O)[O-],-12%
COCCCNC(=S)N/N=C/c1ccc(N(C)C)cc1,13%
Cc1cc(NS(C)(=O)=O)c(=O)n(Cc2c(F)cccc2Cl)c1,-15%
Cc1cc(C)c(COCc2cc(/C=N/O)c(C)cc2C)cc1/C=N/O,3%
CNC(=O)c1cc(S(=O)(=O)N2CC(C)OC(C)C2)ccc1N1CCCCC1 (stereo not given),11%
COc1ccc(CCC(=O)Nc2cccc(S(=O)(=O)N3CCCCCC3)c2)cc1,5%
COC(=O)c1c(NC(=O)c2ccccc2)sc(C(N)=O)c1C,-9%
Cc1cc2nc(-c3ccc(Cl)cc3)cc(C(F)(F)F)n2n1,-3%
COc1ccc2nc(/N=C(\N)NC(=O)C(C)(C)C)nc(C)c2c1,-5%
CC(C)C(OC(=O)c1ccco1)C(=O)NC1CCCCC1 (stereo not given),9%
COC(=O)C1=C[C@@H](C(=O)OC)C2C3=C(C(=O)[C@@]2(C)NC(=O)c2ccccc2)[C@H](C)[C@@H]2C(=O)N(C)C(=O)[C@@H]2[C@@H]3C1 (stereo not given in full),-29%
O=c1c(-c2cccc([N+](=O)[O-])c2)[n+]([O-])c2ccccc2n1O,-12%
OC1CCCN(C(=S)NCc2ccccc2)C1 (stereo not given),-22%

# Of the compounds above, 5 contain an aryl thioether with sulfur outside any ring:
SMILES,VDR inhibitor
COC(=O)c1ccccc1NC(=O)CSc1nncn1-c1ccccn1,-16%
O=C(CSc1nnc(Nc2ccccc2)s1)Nc1ccc(S(=O)(=O)N2CCOCC2)cc1,-1%
CCC1CCCCN1C(=O)CSc1nnc(CNC(=O)c2c(F)cccc2Cl)o1 (stereo not given),1%
O=C(COC(=O)CCSc1ccccc1)Nc1cc(F)ccc1F,8%
CCOC(=O)c1sc2nc(CSc3ccccc3)nc(N3CCCN(C)CC3)c2c1C,-19%

# Following part:
SMILES,VDR inhibitor
O=C(NCC1CCCO1)c1ccccc1S(=O)(=O)c1ccc([N+](=O)[O-])cc1 (stereo not given),-17%
Cc1ccsc1CN(C(=O)c1oc2ccc(Br)cc2c1C)C1CCS(=O)(=O)C1 (stereo not given),7%
COc1ccccc1NC(=O)CSc1nccc(=O)[nH]1,12%
CCN(c1ccccc1)c1nc(Cl)nc2c1cnn2C,-9%
O=C(NC(=S)Nc1ccc2oc(=O)ccc2c1)c1ccco1,-10%
O=C(CSC(=S)N1CCOCC1)c1ccccc1,5%
O=C(O)c1cc2cccc(S(=O)(=O)N3CCCCC3)c2cc1O,-16%
COC(=O)c1ccc(NC(=O)CCn2cccn2)cc1,-2%
O=C(O)CCc1ccc(-c2ccccc2)n1NC(=O)c1ccco1,13%
CCc1ccc2nc(NC(=O)CN3C(=O)NC4(CCCC4)C3=O)sc2c1,-14%
COc1cc([N+](=O)[O-])cc2sc(NC(=O)C(C)(C)C)nc12,7%
CCCCn1c(N)c(N(CC(C)C)C(=O)CN(C)S(=O)(=O)c2ccc(C)cc2)c(=O)[nH]c1=O,2%
O=C(CSc1nc2cc3ccccc3cc2[nH]1)Nc1cccc(C(F)(F)F)c1,4%
COc1cccc(CNC(=O)CN(C)S(=O)(=O)c2cccc3cccnc23)c1,8%
CNc1nc(-c2c(C)[nH]c3ccc(OC)cc23)cs1,-4%
COCCCNC(=S)N1CCN(c2nc(-c3cccc(OC)c3)cs2)CC1,-16%
CCCCn1c(N)c(N(CC(C)C)C(=O)c2ccc(OCC3CCCO3)cc2)c(=O)[nH]c1=O (stereo not given),?
COc1cc(/C=C2/SC(=S)N(CC3CCCO3)C2=O)ccc1O (stereo not given),-8%
Cc1[nH]c2ccc(C(=O)OCC(=O)Nc3cccc(S(N)(=O)=O)c3)cc2c1C,2%
O=C(Oc1ccc(-c2cnc3ccccc3n2)cc1)c1ccco1,-21%
Cc1cc(C)n(-c2nc3c(c(=O)[nH]c(=O)n3C)n2Cc2ccc(F)cc2)n1,-5%
CCCN(CCC)C(=O)C1CC(=O)OC12CCOC(C)(C)C2 (stereo not given),-3%
C/C(=N\OCC(=O)O)c1ccc(Cl)cc1,-3%
Cc1cc(N2CCCC2)ccc1NC(=O)COc1cccc(C(F)(F)F)c1,-4%
CC(C)(C)OC(=O)N1CCCC(C(=O)Nc2cccc(C(=O)NCc3ccccc3)c2)C1 (stereo not given),3%
N#C/C(=C(/O)Cc1cccc2ccccc12)c1nc2ccccc2s1,14%
C=CCNCc1cc(=O)n2c(-c3ccccc3)csc2n1,-2%
Cc1ccc2c(c1)N(C(=O)CCC(=O)N1CCN(c3ccccn3)CC1)CC(C)O2 (stereo not given),-9%
CN(CC(=O)Nc1cccc(F)c1)C(=O)c1cc(-c2cccs2)nn1-c1ccccc1,-5%
Cc1ccc(-c2csc(N(Cc3ccccc3)C(=O)COc3ccccc3)n2)cc1,7%
O=C1SC(Nc2ccccc2)C(=O)N1c1ccccc1 (stereo not given),14%
CC1CCCN(S(=O)(=O)c2cnc[nH]2)C1 (stereo not given),20%
CCS(=O)(=O)c1nc(NC(C)=O)n[nH]1,-21%
CC(C)(C)C1C/C(=C/c2ccco2)C(=O)/C(=C/c2ccco2)C1 (stereo not given),-23%
O=[N+]([O-])c1cccc(-c2nc(-c3ccccn3)no2)c1,1%
c1ccc(Cn2nnnc2C(c2ccccn2)N2CCN(c3ccccc3)CC2)cc1 (stereo not given),3%
C/C(Nc1ccc(F)cc1)=C(/C#N)C(N)=O,4%
Cc1cc2c3c(c1C)C1(C(=O)N3C(C)(C)CC2C)C(C#N)=C(N)Oc2cc(O)ccc21 (stereo not given),-15%
Cc1ccc(CNC(=O)c2ccc3c(c2)N(Cc2ccccc2Cl)C(=O)CS3)cc1,-11%
Cn1cc(-c2nc3cnc(N4CCNCC4)nc3n(C)c2=O)c2ccccc21,-13%
CCOc1cccc(NC(=O)Cc2cccs2)c1,18%
COc1ccc(C)cc1NC(=O)c1c([N+](=O)[O-])cnn1C,9%
CC(C)(C)OC(=O)N1CCC(c2c(C(=O)Nc3ccc4c(c3)OCCO4)cnn2-c2ccc(F)cc2F)CC1,7%
COc1ccc(CNC(=O)Cn2nc(C(F)(F)F)cc2C)cc1,-2%
CN(C(=O)COC(=O)c1nc(Cl)ccc1Cl)c1ccccc1,12%
Cc1cc(=O)oc2cc(NC(=O)c3ccccc3Cl)ccc12,-14%
O=C(Nc1cc(Cl)cc(Cl)c1)c1ccc(F)c(S(=O)(=O)NC2CCCC2)c1,19%
COc1cccc(OCC(=O)NNC(=O)c2cnccn2)c1,-28%
O=C(CN(CC(=O)N1CCOCC1)S(=O)(=O)c1ccc(Br)s1)N1CCOCC1,-22%
CN(CCC#N)C(=O)COC(=O)c1cc(Cl)cc(Cl)c1N,4%
CC(=O)C1=C(O)C(=O)N(c2ccc(Br)cn2)C1c1ccccc1F (stereo not given),-4%
O=C1C=C(NCc2ccc(Cl)c(Cl)c2)CC1,7%
CSCCC(=O)N(C)CC1CCN(CCc2cccc(C(F)(F)F)c2)CC1,-15%
COc1ccc(N2CCN(C(=O)CSc3c4c(nc5ccc(Cl)cc35)CCCC4)CC2)cc1,-13%
O=C(COC(=O)CCc1nc2ccccc2s1)Nc1ncc(Cl)cc1Cl,-8%
COc1cc2nc(/C=C/c3cc(OC)c(OC)c(OC)c3)sc2cc1SC,-11%
COc1cccc(OCCn2cc(C(C)=O)c3ccccc32)c1,8%
CCCCCCCc1c(O)nc(SCCN(C)C)[nH]c1=O,-20%
COC(=O)CCCC1=CC2=CC(=O)C(C)(OC(=O)c3cccs3)C(=O)C2=CO1 (stereo not given),3%
CCOC(=O)c1n[nH]n(-c2cc(Cl)cc(Cl)c2)c1=O,0%

# Additional records follow.
SMILES,VDR inhibitor
COc1ccc(C(=O)OCC[N+]2(C)CCOCC2)cc1,12%
Cc1cccc(C)c1NC(=O)C1(N2C(=O)CC2c2ccccc2)CCCCC1 (stereo not given),-6%
O=C(COC(=O)c1ccc(Cl)cc1)NCC1CCCCC1,-2%
Cc1ccc(Cn2c(C)c(CNC3CCCCC3)c(C(=O)O)c2C)cc1,7%
Cc1ccc(N(CC(=O)NN=C2CCN(C)CC2)S(=O)(=O)c2ccc(C)cc2)cc1,-18%

# An excerpt; count on the stated rates, not on these rows.
